Bead autofluor = compound fluorescence in toxin protease inhibitor counterscreen. AID 624483. actives 3.1% (n = 360,000). compound autofluorescence counterscreen, microsphere flow cytometry; hits give high values. fluorescence intensity (test concentration not listed);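 active = at least 3 SD above the mean of all compounds, about 16000 in these data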;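 note: 100 nL of 1 mM stock went into each well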
* = called active by the depositor.

| SMILES | Bead autofluor |
| --- | --- |
| COc1cc(NC(=O)Nc2nnc([C@H]3C[C@H](O)[C@@H](CO)O3)s2)cc(OC)c1OC | 3492 |
| COC(=O)[C@H]1C[C@@]2(O)CN(S(=O)(=O)c3ccc(C)cc3)C[C@@]2(OC(=O)NC2CCCC2)C[C@H]1C(=O)OC | 3041 |
| CCOc1ccc(CCN2C(=S)N([C@@H](Cc3ccccc3)CN3CCC[C@@H]3CN3C(=S)NC[C@@H]3Cc3ccc(O)cc3)C[C@@H]2CC(C)C)cc1 | 6013 |
| O=C(NCc1ccco1)C1Cc2c(-c3ccccc3Oc3ccccc3)ccnc2O1 (centres undefined) | 3368 |
| Cc1cccc(C)c1-n1nnnc1C1c2ccccc2C(=O)N1CCC(C)C (centres undefined) | 4457 |
| O=C(NCc1ccccc1)c1cc(C2CCCN(C(=O)C3CCCCC3)C2)on1 (centres undefined) | 3270 |
| CC(=O)c1cccc(-c2ccnc3c2CC(C(=O)Nc2cccnc2)O3)c1 (centres undefined) | 3653 |
| N#Cc1cccc(-c2csc(C(O)c3ccc(F)cc3)n2)c1 (centres undefined) | 3741 |
| CCN(CC)c1c(C)nc2ccc(C(=O)N3CCN(C(=O)c4ccco4)CC3)cn12 | 3935 |
| C[C@@H]1CN([C@@H](C)CO)C(=O)CCCn2nncc2CO[C@@H]1CN(C)C(=O)OCc1ccccc1 | 3514 |
| CC(C)Cc1ccc(-c2cc3nc(NCC4CC4)ccn3n2)cc1 | 4070 |
| CC1=C(C(=O)N(C(C)C)C(C)C)CC(CC(=O)NCc2ccco2)C(=O)N1Cc1ccccc1 (centres undefined) | 6037 |
| CC1(Cc2ccc3c(c2)OCO3)C(=O)Nc2ccc(-c3cccc(C(F)(F)F)c3)cc21 (centres undefined) | 3503 |
| CCc1ccccc1OCC(=O)Nc1nnc(C2CC2)s1 | 3477 |
| CN(C)C(CNC(=O)c1sc2ccccc2c1Cl)c1ccco1 (centres undefined) | 4043 |
| Cc1nc(N(C)C2CCCCC2)c2nnn(Cc3ccc(F)cc3)c2n1 | 3633 |
| COc1ccc(NC(=O)COC(=O)c2ccc(S(=O)(=O)N3CC(C)CC(C)C3)cc2)cc1OC (centres undefined) | 3047 |
| CCOc1ccccc1C(=O)NC(C(=O)OCC(=O)NNC(=O)c1cccs1)C(C)C (centres undefined) | 3798 |
| Cc1ccc(-c2csc3ncnc(N4CCN(S(=O)(=O)c5ccc(C#N)cc5)CC4)c23)cc1 | 3816 |
| O=C(NC1CCCCC1)c1ccc2ccccc2c1 | 4064 |
| CC(C)C1C(=O)N(Cc2cn(CCC3OCCCO3)nn2)CCS(=O)(=O)N1Cc1ccc(-c2ccc(Cl)c(Cl)c2)cc1 (centres undefined) | 3570 |
| CCN1C(=O)[C@H]2[C@@H](c3ccc(C(F)(F)F)cc3)N[C@]3(CCCN(Cc4ccc(Br)cc4)C3=O)[C@H]2C1=O | 3620 |
| C[C@H](O)[C@@H]1C(=O)N2CCc3ccc(-c4ccccc4)cc3[C@@H]2C[C@@H]1N(C)C(=S)Nc1ccc(F)cc1 | 3065 |
| C[C@H](CO)N1C[C@H](C)[C@H](CN(C)Cc2cncnc2)Oc2ncc(C#CC3(O)CCCC3)cc2C1=O | 3852 |
| Cc1ccc(S(=O)(=O)NC(=O)C2(C)CCN2C(=O)CC2CCCCC2)nc1 (centres undefined) | 3946 |
| CNC(C)C(=O)NC(C(=O)NC(C(=O)Nc1cccc2ccccc12)C(C)C)C(C)C (centres undefined) | 3134 |
| CCc1nc2c(OCCC3CCCCC3)cccn2c1N(C)C(=O)c1cccs1 | 3583 |
| Cc1ccccc1NC(=O)COC(=O)COc1ccc2ccc(=O)oc2c1 | 4513 |
| COC(=O)c1ccc2nc(-c3ccc(C)cc3)c(CC3CCCCC3)n2c1 | 7327 |
| COc1cc(C(=O)N2CCCC(c3cc(C(=O)NCc4ccccc4)no3)C2)cc(OC)c1C (centres undefined) | 4176 |

Taken from above, 3 compounds:
| SMILES | Bead autofluor |
| --- | --- |
| Cc1ccccc1NC(=O)COC(=O)COc1ccc2ccc(=O)oc2c1 | 4513 |
| COC(=O)c1ccc2nc(-c3ccc(C)cc3)c(CC3CCCCC3)n2c1 | 7327 |
| COc1cc(C(=O)N2CCCC(c3cc(C(=O)NCc4ccccc4)no3)C2)cc(OC)c1C (centres undefined) | 4176 |

Carrying on.
| SMILES | Bead autofluor |
| --- | --- |
| COC(=O)c1ccc2nc(-c3ccccc3)c(Cc3ccccc3C(F)(F)F)n2c1 | 6024 |
| COc1ccccc1N(C)c1cc2c(c3c1ccn3C)C1CCC2C1 (centres undefined) | 5804 |
| O=C(NNC(=O)c1csc(-c2ccccc2)n1)c1ccccc1 | 5096 |
| NC(=O)c1csc(CCNC(=O)c2ccccc2)n1 | 3564 |
| CC(=O)NCCNC(=O)C1Cc2c(-c3ccccc3Oc3ccccc3)ccnc2O1 (centres undefined) | 3797 |
| CCN(CC)c1ncnc2c1ncn2[C@H]1CN(Cc2cccs2)C[C@@H](CO)O1 | 3717 |
| Cc1cc(C)n2c(Nc3ccc4c(c3)OCCO4)c(-c3cc4ccccc4o3)nc2n1 | 4370 |
| O=C(/C=C/[C@H]1O[C@@H](n2ccc(=O)[nH]c2=O)[C@H](O)[C@@H]1O)NCCc1c[nH]c2ccccc12 | 4411 |
| O=C(Nc1ccc2c(c1)OCCO2)C1c2ccccc2OCC(=O)N1CCCN1CCOCC1 (centres undefined) | 5159 |
| CCc1nc2c(OC)cccn2c1N(C)C(=O)c1ccccc1F | 3717 |
| Cc1c(Br)cccc1NC(=O)C1(C)CCN1Cc1ccc(OC(C)C)cc1 (centres undefined) | 3811 |
| Cc1nc(CN2C(=O)C3(CCC3)ON=C2c2cccc(Cl)c2)cs1 | 4999 |
| COc1ccc(C(C)(NC(C)=O)c2nc(-c3ccc(F)c(Cl)c3)cs2)cc1 (centres undefined) | 3767 |
| CC1(C(=O)NS(=O)(=O)Cc2ccccc2C(F)(F)F)CCN1C(=O)c1ccco1 (centres undefined) | 2892 |
| Cc1ccc(CN2CCC[C@]3(N[C@H](c4ccc(C(F)(F)F)cc4)[C@@H]4C(=O)N(Cc5ccccc5)C(=O)[C@@H]43)C2=O)cc1 | 2729 |
| Cn1ccc2c(-c3cccc(C=O)c3)cc3c(c21)C1CCC3O1 (centres undefined) | 5895 |
| COc1ccc(-c2noc([C@@H]3O[C@H](CO)[C@H](O)[C@H](O)[C@H]3O)n2)cc1OC | 2844 |
| COc1ccc(C(C)(NC(C)=O)c2nc(-c3cccc(F)c3)cs2)cc1 (centres undefined) | 3675 |
| CCc1ccc([C@@H]2C[C@H]3[C@@H](CN2S(=O)(=O)c2ccc(C)cc2)C(=O)C[C@@H](c2cccc(Cl)c2)N3S(=O)(=O)c2ccc(C)cc2)cc1 | 3723 |
| COc1ccc(C)cc1NC(=O)NC1CC(=O)N(c2ccc3c(c2)OCCO3)C1 (centres undefined) | 3129 |
| Cc1noc(C)c1S(=O)(=O)Nc1ccc2c(c1)C(=O)N([C@H](C)CO)C[C@H](C)[C@@H](CN(C)C(=O)CCCN(C)C)OCCCC[C@@H](C)O2 | 3482 |
| Cc1cccc(C2CC(c3ccccc3)=NN2c2ccc(S(N)(=O)=O)cc2)c1 (centres undefined) | 4923 |
| CCOC(=O)[C@]12CCCC=C1N(Cc1ccc3c(c1)OCO3)C(=O)[C@H](CC(=O)NCC1CCCCC1)C2 | 5221 |
| CC(C)C[C@H]1COc2cccc(N3CCN(Cc4ccccc4F)CC3)c2S(=O)(=O)N1 | 5736 |
| Cn1c(=O)c2cc(NC(=O)Nc3cccnc3)ccc2n1Cc1cccc(C(F)(F)F)c1 | 3858 |
| O=C(CC[C@H]1O[C@@H](n2cnc3c(NC(=O)c4ccccc4)ncnc32)[C@H](O)[C@@H]1O)NCc1cccc2ccccc12 | 5892 |
| Cc1ccc(OCCNC(=O)[C@H]2O[C@@H](n3ccc(=O)[nH]c3=O)[C@H](O)[C@@H]2O)cc1C | 6231 |
| COc1cccc(CNC(=O)[C@@H]2CCCN2C(=O)[C@H]2CCCCN2C(=O)c2cccs2)c1 | 5131 |
| O=C(CN1CCN(c2ccccc2)CC1)Nc1ccccc1C(=O)NCCc1ccccc1 | 3013 |
| Cc1ccc(C)c(-n2nnc3ccccc3c2=O)c1 | 2937 |
| CC(C)CN(C(=O)COC(=O)c1cccs1)c1c(N)n(Cc2ccccc2)c(=O)[nH]c1=O | 2949 |
| CCCN(CC(=O)Nc1ccccc1C)C(=O)/C=C/c1ccc(OC)c(OC)c1 | 3730 |
| OC(c1ccccc1)(c1nc(-c2cccc(C(F)(F)F)c2)cs1)C(F)(F)F (centres undefined) | 3848 |
| C[C@@H]1CN([C@@H](C)CO)C(=O)CCCn2nncc2CO[C@H]1CN(C)S(=O)(=O)c1ccc(Oc2ccccc2)cc1 | 3583 |
| CC(C)NC(=O)N(C)C[C@@H]1OCCCC[C@@H](C)Oc2ccc(NC(=O)Nc3ccc(F)cc3)cc2C(=O)N([C@H](C)CO)C[C@@H]1C | 4449 |
| C[C@H]1CN([C@@H](C)CO)S(=O)(=O)c2ccc(Br)cc2O[C@H]1CN(C)S(=O)(=O)c1ccccc1 | 4028 |
| CCNC(=O)C1(C)CCN(Cc2ccc(C(F)(F)F)cc2)C1 (centres undefined) | 3892 |
| COc1ccc(CCCNC(=O)C2Cc3c(-c4cccc(C(C)=O)c4)ccnc3O2)cc1 (centres undefined) | 2626 |
| C[C@H]1CN([C@@H](C)CO)C(=O)CCCn2nncc2CO[C@@H]1CN(C)Cc1ccccc1 | 3714 |
| O=c1[nH]c2ccccc2n1C1CCN(Cc2ccc(-c3[nH]c4cc5ncnc5cc4nc3-c3ccccc3)cc2)CC1 | 6016 |
| CCCC(NC(=O)CCc1c(C)c2cc3c(C)c(C)oc3cc2oc1=O)C(=O)NC(Cc1ccc(Cl)cc1)C(=O)O (centres undefined) | 5018 |
| CC(C)(C)c1cc(NC(=O)COC(=O)c2ccccc2)n(-c2ccccc2)n1 | 2981 |
| CN(C)CCNC(=O)c1cccc(-c2cccc3nccn23)c1 | 3782 |
| OC(c1ccccc1)c1ncc(-c2ccccc2F)[nH]1 (centres undefined) | 3787 |
| CC(C)Nc1nc(-c2ccccc2F)c2sc(-c3ccccc3)cc2n1 | 2881 |

Rewritten as labelled records: part of the list above.
> CC(C)NC(=O)N(C)C[C@@H]1OCCCC[C@@H](C)Oc2ccc(NC(=O)Nc3ccc(F)cc3)cc2C(=O)N([C@H](C)CO)C[C@@H]1C
- Bead autofluor: 4449
> C[C@H]1CN([C@@H](C)CO)S(=O)(=O)c2ccc(Br)cc2O[C@H]1CN(C)S(=O)(=O)c1ccccc1
- Bead autofluor: 4028

Continuation:
| SMILES | Bead autofluor |
| --- | --- |
| CCN(CC)S(=O)(=O)c1ccc(N2CCCCC2)c(NC(=O)C2CSC3(C)CCC(=O)N23)c1 (centres undefined) | 4932 |
| CC1=C(C(=O)N(C(C)C)C(C)C)CC(CC(=O)NCCN2CCOCC2)C(=O)N1CCCN1CCCC1=O (centres undefined) | 4425 |
| CC(=O)Nc1ccc(NC(=O)c2ccccc2Br)cc1 | 3313 |
| COC(=O)[C@@H](Cc1ccccc1)NC(=O)/C=C/[C@H]1O[C@@H](n2cnc3c(NC(=O)c4ccccc4)ncnc32)[C@H](O)[C@@H]1O | 4682 |
| C[C@@H]1CN([C@@H](C)CO)C(=O)CCCn2cc(nn2)CO[C@H]1CN(C)S(=O)(=O)c1cccs1 | 2921 |
| CN(C)CCNC(=O)c1cccc(-c2cnc3c(NC=O)cc(-c4cc(F)c(F)c(F)c4)cn23)c1 | 3601 |
| O=C(NCC(F)(F)F)c1ccc2sc([C@H]3C[C@H](O)[C@@H](CO)O3)nc2c1 | 3328 |
| CC1NC(=O)c2cc3ccccc3cc2-n2c1nc1ccc(F)cc1c2=O (centres undefined) | 3975 |
| NC(Cc1ccc(Cl)cc1)c1csc(Nc2ccc(-c3ccccc3)nn2)n1 (centres undefined) | 3187 |
| CC1(C(=O)NS(=O)(=O)c2ccccc2OC(F)(F)F)CCN1C(=O)c1ccco1 (centres undefined) | 3756 |
| CC(C)N(C)c1ncnc2c1ncn2[C@H]1CN(Cc2ccccc2)C[C@@H](CO)O1 | 3777 |
| CC1(C)CC(=O)C=C(c2ccc(CO)cc2)C1=O | 3353 |
| Cc1nc2c(OCc3ccc(Cl)cc3)cccn2c1N(C)C(=O)CCC1CCCC1 | 3740 |
| CC1(C(=O)NS(=O)(=O)c2ccc(C#N)cc2)CCN1C(=O)Cc1cccc2ccccc12 (centres undefined) | 3546 |
| CN(C)CCN(C)C1CN(Cc2ccc(F)cc2)S(=O)(=O)C1 (centres undefined) | 5350 |
| CN(c1ccc(Cl)cc1)c1cc2c(c3c1ccn3C)C1CCC2O1 (centres undefined) | 5333 |
| CC(CO)NS(=O)(=O)c1cc(Cl)ccc1F (centres undefined) | 3852 |
| CCOC(=O)C1=CCN(S(=O)(=O)c2ccccc2Cl)C1c1ccccc1 (centres undefined) | 5168 |
| N#Cc1cccc(NC(=O)c2cc(C3CCCCN3C(=O)c3ccccc3)on2)c1 (centres undefined) | 3131 |
| Cc1ccc(-c2ccc(CN3C(C(C)C)C(=O)N(Cc4cn(CCC5OCCO5)nn4)CCS3(=O)=O)cc2)c(C)c1 (centres undefined) | 5981 |
| COc1cccc(CNC(=S)Nc2ccc3c(c2)c(=O)n(C)n3C)c1 | 4163 |
| O=C(NC1CCCCC1)N(c1ccccc1)c1nnc(-c2cccc([N+](=O)[O-])c2)s1 | 3975 |
| O=S(=O)(NCC1CCCO1)c1ccc(Cl)c2ccccc12 (centres undefined) | 3545 |
| CCC/C=C/c1ccc(CN2C(C)C(=O)N(Cc3cn(CCC4OCCO4)nn3)CCS2(=O)=O)cc1 (centres undefined) | 3733 |
| C[C@@H]1CN([C@H](C)CO)C(=O)CCCn2nncc2CO[C@H]1CN(C)S(=O)(=O)c1ccc(Cl)cc1 | 3808 |
| CC(C)n1c(=O)c2ccccc2n1Cc1cn(Cc2ccccc2)nn1 | 4226 |
| COc1ccc2c(CN3CCN(Cc4ccccc4)CC3)cc(=O)oc2c1 | 2797 |
| O=C1CCN(Cl)C(=O)N1Cl | 6154 |
| COCCN(C(=O)COC(=O)CSc1cc(C)ccc1C)c1c(N)n(Cc2ccccc2)c(=O)[nH]c1=O | 4373 |
| COc1ncccc1-c1cc2nc(NCCNC(C)=O)n(C)c(=O)c2s1 | 2872 |
| O=C(Nc1ccc2c(c1)[C@@H]1C[C@@H](CC(=O)N3CCCCC3)O[C@@H](CO)[C@@H]1O2)NC1CCCCC1 | 2898 |

An excerpt; the hit share may differ from the screen's.
